Bioassay records: PubChem BioAssay, several laboratories
PKD1 kinase inh = inhibitors of human PKD1 kinase. Q15139. PKD1 kinase fluorescence polarization assay. inhibition, %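 (about 10 µM by stock and volumes)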. 200,000 compounds, 0.056% hits. AID 797;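 active = inhibition of 50% or more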;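 also: controls were vehicle for no effect and a reference inhibitor for full effect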
Target sequence (Q15139 whole entry, looked up): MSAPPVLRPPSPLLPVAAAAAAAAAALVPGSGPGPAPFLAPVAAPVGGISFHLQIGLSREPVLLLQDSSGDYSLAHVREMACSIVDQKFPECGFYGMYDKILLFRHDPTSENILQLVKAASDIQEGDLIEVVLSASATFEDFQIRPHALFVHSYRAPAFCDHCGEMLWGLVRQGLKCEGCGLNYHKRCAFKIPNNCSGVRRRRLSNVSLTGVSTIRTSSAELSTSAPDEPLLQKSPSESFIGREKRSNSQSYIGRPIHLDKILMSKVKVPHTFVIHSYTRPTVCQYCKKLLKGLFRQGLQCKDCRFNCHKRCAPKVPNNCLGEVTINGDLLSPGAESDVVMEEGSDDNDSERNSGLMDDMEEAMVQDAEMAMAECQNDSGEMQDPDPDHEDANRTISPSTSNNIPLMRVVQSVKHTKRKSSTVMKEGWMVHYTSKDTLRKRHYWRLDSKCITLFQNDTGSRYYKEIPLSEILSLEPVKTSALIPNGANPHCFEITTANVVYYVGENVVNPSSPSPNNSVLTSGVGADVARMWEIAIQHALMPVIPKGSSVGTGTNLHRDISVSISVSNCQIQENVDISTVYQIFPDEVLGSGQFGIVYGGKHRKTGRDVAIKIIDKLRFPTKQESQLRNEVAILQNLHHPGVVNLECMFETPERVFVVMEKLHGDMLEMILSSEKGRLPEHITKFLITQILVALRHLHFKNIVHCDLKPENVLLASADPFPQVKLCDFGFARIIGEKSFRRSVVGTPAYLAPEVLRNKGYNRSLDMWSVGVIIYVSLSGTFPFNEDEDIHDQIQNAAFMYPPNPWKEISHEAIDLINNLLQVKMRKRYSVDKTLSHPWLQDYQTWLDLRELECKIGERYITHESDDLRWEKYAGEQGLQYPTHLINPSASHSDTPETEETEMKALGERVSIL
RGS16-Gao HTS = modulates binding between human RGS16 and Galphao; O15492+P09471; bead-based flow cytometry RGS16-Galphao binding, fluorescence; actives lie on both sides; binding response (% of control), % at 10 µM; 220,000 compounds, 0.38% hits;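 active = below 25% or above 175%, edge rows of some plates excepted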;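 also: Galphao activated by GDP with aluminum fluoride before binding; 100% = wells without compound and 0% = beads without RGS; some results beyond the cut were filed as inactive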
GALR2 agonist = agonists of human galanin receptor 2 (GALR2). 140,000 compounds, 0.48% hits. activation, %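 (tested at 5 µM)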. O43603. GALR2-expressing cells, agonist activation read-out;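 active = above mean plus 3 SD of all compounds, about 5% in these data, not always enough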;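 also: 0% = vehicle buffer wells and 100% = reference agonist at full effect; tested in CHO reporter cells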
Insulin prom inh = TRM-6 insulin promoter activity inhibition | TRM-6 cells (human fetal islet line), insulin promoter-eGFP reporter, imaging; reporter expression induced with tamoxifen | inhibition, % at 2 µM | 130,000 compounds, 0.9% hits | AID 1273;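 active = inhibition above the mean plus 3 SD, with well images judged a real hit on visual review, cut at about 60% in these data, passing the limit was not always enough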
HSV augment = increases HSV replication in cells. HSV replication augmentation in cells, fold increase. maximum fold increase. 220,000 compounds, 0.005% hits;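 active = peak rise of 1.5-fold or more in the series; tested in PC3 cells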;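 also: first round at 10 µM; read as green reporter fluorescence; hits show the peak of a series up to 25 µM; 1 = signal of infected wells without compound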
Insulin prom inh cell count = further read-out of Insulin prom inh, marked with its call; normalized cell count, %; measured here: cell count, toxicity; reference of the scale not given here;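 cells exposed to compound for 48 h; stained nuclei by imaging scaled within each plate; lower means fewer cells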
HSV augment primary fold = further read-out of HSV augment, marked with its call; fold increase; compound at 10 µM; measured here: primary screen fold increase 10 uM; tested in PC3 cells;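 GFP signal in the first replicate; 1 = infected wells without compound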
* = called active by the depositor; i = inactive; nt = not tested or not shown.

SMILES | PKD1 kinase inh | RGS16-Gao HTS | GALR2 agonist | Insulin prom inh | Insulin prom inh cell count | HSV augment | HSV augment primary fold
CC(NC(=O)/C=C/c1ccc(Br)cc1)c1ccccc1 (stereo not given) | -15 | 105 | -2.1 | -4 | 97 | i | 0.94
O=c1c(-c2ccc(Br)cc2)coc2c(CN3CCOCC3)c(O)ccc12 | -3 | 103 | -2.1 | 27 | 67 | i | 0.93
Cc1ccc(/C=N/n2c(C)cc(C)c(C#N)c2=O)o1 | -2 | 104 | -0.6 | -25 | 129 | i | 0.99
CCN1CCCC1CNC(=O)c1ccc(CS(=O)(=O)c2ccccc2C)o1 (stereo not given) | -9 | 101 | -1.2 | -61 | 136 | i | 1
Cc1cc(O)c(/C=N/Nc2ccc(F)cc2)c(=O)o1 | -7 | 102 | nt | nt | nt | i | 1
COCCOC(=O)c1c(C)oc2ccc(OC(=O)c3ccc4c(c3)OCO4)cc12 | -12 | 101 | -0.2 | nt | nt | i | 0.86
COc1ccc(C(C(=O)NCC2CCCO2)N(C(=O)CNC(=O)c2cccs2)c2ccccc2)cc1OC (stereo not given) | 3 | 102 | nt | nt | nt | i | 0.68
COc1ccc(C(=O)NCc2nnc(SCC(=O)N3CCc4ccccc43)n2Cc2ccccc2)cc1 | -1 | 108 | 1.6 | -11 | 138 | i | 1
O=C1CCCN1c1ccc(S(=O)(=O)Nc2cccnc2)cc1 | -3 | 108 | nt | nt | nt | i | 1
Cc1cccc(-n2c(SCC(=O)Nc3nnc(C)s3)nnc2-c2ccoc2C)c1 | -6 | 100 | 1.2 | -15 | 131 | i | 0.85
CCOC(=O)c1c(NC(=O)CSc2nnc(-c3ccccc3)n2CC)sc(C(C)=O)c1C | 1 | 102 | -0.7 | -21 | 93 | i | 0.9
CN1CCN(C(=O)CSc2nc(-c3cccs3)cc(-c3cccs3)c2C#N)CC1 | -9 | 111 | -1.1 | -322 | 55 | i | 0.87
Oc1ccc(Br)cc1C=Nc1cccn2cc(-c3ccccc3)nc12 | -9 | 102 | nt | 0 | 104 | i | 0.99
Clc1ccc(Cn2cc(Br)cn2)cc1Cl | -8 | 104 | -1.5 | i | 26 | i | 1
CCCSc1nc(-n2ncc(C#N)c2N)c2c3c(sc2n1)CCC(C)C3 (stereo not given) | -4 | 106 | 1.0 | 10 | 85 | i | 1
COc1ccc(Cl)cc1N=Cc1c(O)cc(C)oc1=O | -3 | nt | -1.1 | 32 | 104 | i | 0.98
CCCC(=O)Nc1ccccc1NC(=O)CN(C)S(=O)(=O)c1ccccc1 | 6 | 105 | -1.0 | -256 | 75 | i | 1.1
N/C(=N\OC(=O)CCCc1ccccc1)c1ccc([N+](=O)[O-])cc1 | -3 | 109 | -1.5 | -33 | 88 | nt | nt
COc1ccc(CN(CC(=O)NCC2CCCO2)C(=O)CCC(=O)Nc2cc(C)ccn2)cc1 (stereo not given) | -10 | 106 | -1.2 | -9 | 128 | i | 1
Fc1ccc(C2=CC(c3cccs3)n3nnnc3N2)cc1 (stereo not given) | nt | 99 | nt | nt | nt | i | 1.2
Cc1nn2c(N3CCOCC3)c3c(nc2c1-c1ccccc1)CCCC3 | 7 | 101 | -0.1 | nt | nt | i | 0.97
O=C(COc1ccccc1)N/N=C/c1ccc2c(c1)OCO2 | -9 | 101 | nt | nt | nt | i | 1
c1ccc(NCc2cccnc2)cc1 | -10 | 95 | -2.4 | 29 | 86 | i | 1.1
C=CCNc1ccc(C(=O)O)cc1 | -13 | 100 | 0.1 | nt | nt | i | 1.1
Cc1cccc(N2CC(O)(c3cccs3)[N+]3=C2CCCC3)c1 (stereo not given) | -8 | 102 | nt | nt | nt | i | 0.91

Looked up by compound from the entries so far:
SMILES | PKD1 kinase inh | RGS16-Gao HTS | GALR2 agonist | Insulin prom inh | Insulin prom inh cell count | HSV augment | HSV augment primary fold
COc1ccc(C(C(=O)NCC2CCCO2)N(C(=O)CNC(=O)c2cccs2)c2ccccc2)cc1OC (stereo not given) | 3 | 102 | nt | nt | nt | i | 0.68
C=CCNc1ccc(C(=O)O)cc1 | -13 | 100 | 0.1 | nt | nt | i | 1.1
Cc1nn2c(N3CCOCC3)c3c(nc2c1-c1ccccc1)CCCC3 | 7 | 101 | -0.1 | nt | nt | i | 0.97

Next entries
SMILES | PKD1 kinase inh | RGS16-Gao HTS | GALR2 agonist | Insulin prom inh | Insulin prom inh cell count | HSV augment | HSV augment primary fold
COc1ccc(OC)c(-n2c(CN3CCC(C(N)=O)CC3)nc3ccccc3c2=O)c1 | -4 | 226 | -1.4 | 8 | 105 | i | 1
FC(F)C(F)(F)C(F)(F)C(F)(F)c1cc(-c2ccccc2)n[nH]1 | 4 | 73 | 1.3 | 22 | 119 | i | 1.3
CCOc1ccc(N2C(=O)C(CC(=O)Nc3ccccc3)N(Cc3ccccn3)C2=S)cc1 (stereo not given) | -4 | 104 | nt | nt | nt | i | 0.95
COc1cc(NC(=O)c2cccc(C)c2)c(OC)cc1NC(=O)CN1CCOCC1 | -4 | 105 | nt | -42 | 182 | i | 0.96
CC(=O)Nc1ccc(-c2cc(N)n(-c3ccccc3)n2)cc1 | nt | 110 | nt | nt | nt | i | 1
Cc1nn(C)c(C(=O)NN)c1Cl | -2 | 103 | nt | 19 | 92 | i | 1
COc1ccccc1CN1CN(S(=O)(=O)c2ccccc2)c2nc3ccccc3nc21 | nt | 98 | nt | nt | nt | i | 1
c1cncc(-c2nnc(SCc3cccc4ccccc34)o2)c1 | -21 | 99 | -4.2 | nt | nt | nt | nt
Cc1nn(-c2cc(C)c3ccccc3n2)c2c1CCC2 | -5 | 109 | -3.3 | -6 | 101 | i | 1
O=C(NCc1ccc(Cl)cc1)C1C2C=CC3(CN(Cc4cccnc4)C(=O)C13)O2 (stereo not given) | 6 | 99 | -1.4 | nt | nt | i | 1.1
CC(C)(C)Sc1ccc(/C=N/O)cc1[N+](=O)[O-] | 0 | 103 | nt | nt | nt | i | 1.1
CCOC(=O)c1ccc(NC(=S)N2CCN(CCN=CC3=C(O)CC(c4ccccc4)CC3=O)CC2)cc1 (stereo not given) | nt | 101 | nt | nt | nt | i | 0.94
C=C(C)C(=O)OCC(=O)NCc1ccccc1 | 5 | 98 | nt | nt | nt | i | 0.87
Cn1ncc(C(=O)Nc2ccc(Cl)cc2)c1C(F)(F)F | nt | 100 | nt | nt | nt | i | 0.95
CC1CCN(c2cc(C#N)c(C#N)cc2[N+](=O)[O-])CC1 | -2 | 97 | -3.2 | 8 | 169 | i | 0.76
O=P(O)(CCc1ccccn1)CN1CCCCC1 | 3 | 98 | -3.9 | nt | nt | i | 1.1
COc1ccccc1CCNC(=O)CSc1ccc(-c2cccs2)nn1 | 2 | 101 | nt | 36 | 94 | i | 0.96
Cc1ccc(OCc2ccc(C(=O)Nc3c(C)nn(Cc4c(F)c(F)c(F)c(F)c4F)c3C)o2)c([N+](=O)[O-])c1 | 2 | 104 | 1.1 | nt | nt | i | 0.79
CCOC(=O)C(C)Sc1ccc2nnc(CCNS(=O)(=O)c3ccc(C)cc3)n2n1 (stereo not given) | 0 | 102 | nt | nt | nt | i | 0.97
O=C(CCN1CCN(c2ccccn2)CC1)Nc1ccc(F)cc1 | -2 | 101 | -0.2 | -10 | 86 | i | 0.89
CCOC(=O)Nc1ccc2c(c1)N(C(=O)CCN(C)C)c1ccccc1S2 | -1 | 106 | -2.0 | nt | nt | i | 0.73
O=C(Nc1cccc2oc(=O)ccc12)c1ccc([N+](=O)[O-])cc1[N+](=O)[O-] | 5 | 108 | -0.3 | 0 | 141 | i | 0.88
CCOc1cccc2cc(-c3csc(NC(=O)CCC(=O)NCCN4CCCCC4C)n3)c(=O)oc12 (stereo not given) | 3 | 97 | nt | 25 | 139 | i | 0.92
Cc1ccc(-c2nnc(-c3ccc(NC(=O)Cc4cccs4)cc3)o2)cc1 | -9 | 95 | -3.2 | nt | nt | i | 0.63
Cc1ccc(CNC(=O)COC(=O)c2ccc(S(=O)(=O)N(C)C)cc2)cc1 | -11 | 105 | nt | nt | nt | i | 1

Gathered by group, the compounds so far containing a cyano group (4)
SMILES | PKD1 kinase inh | RGS16-Gao HTS | GALR2 agonist | Insulin prom inh | Insulin prom inh cell count | HSV augment | HSV augment primary fold
Cc1ccc(/C=N/n2c(C)cc(C)c(C#N)c2=O)o1 | -2 | 104 | -0.6 | -25 | 129 | i | 0.99
CN1CCN(C(=O)CSc2nc(-c3cccs3)cc(-c3cccs3)c2C#N)CC1 | -9 | 111 | -1.1 | -322 | 55 | i | 0.87
CCCSc1nc(-n2ncc(C#N)c2N)c2c3c(sc2n1)CCC(C)C3 (stereo not given) | -4 | 106 | 1.0 | 10 | 85 | i | 1
CC1CCN(c2cc(C#N)c(C#N)cc2[N+](=O)[O-])CC1 | -2 | 97 | -3.2 | 8 | 169 | i | 0.76

More results follow:
SMILES | PKD1 kinase inh | RGS16-Gao HTS | GALR2 agonist | Insulin prom inh | Insulin prom inh cell count | HSV augment | HSV augment primary fold
Cc1ccc(NC(=O)c2cnccn2)cc1S(=O)(=O)N(C)C | -3 | 110 | -0.9 | -38 | 72 | i | 0.92
COc1ccc(NC(=O)NCCCN2CCN(c3cc(C)ccc3C)CC2)cc1 | -7 | 101 | -0.9 | -10 | 140 | i | 0.76
Cc1ccc(OCC(=O)Nc2ccc(S(=O)(=O)N3CCN(C)CC3)cc2)cc1 | 1 | 112 | -1.4 | -406 | 65 | i | 1
Cc1ccc(S(=O)(=O)NC(=O)c2cc(C)n(CCCn3ccnc3)c2C)cc1 | -8 | 98 | -1.5 | 47 | 58 | i | 1
NC(=O)C1=C[C@H](c2coc3ccccc3c2=O)C[C@H](OCc2ccc(CO)cc2)O1 | 13 | 88 | nt | nt | nt | nt | nt
CC1(C)CC(N2CCN(Cc3ccccc3)CC2)=CC(=[N+]2CCCCC2)C1 | nt | 93 | nt | nt | nt | i | 0.97
C/C(=N/Oc1nc(C)cc(C)n1)c1ccc(Cl)cc1Cl | -12 | 92 | -1.4 | -15 | 141 | i | 0.95
C[C@H](NC(=O)c1nc[nH]c1C(=O)N[C@@H](Cc1ccccc1)C(=O)OC(C)(C)C)C(=O)OC(C)(C)C | nt | 107 | nt | nt | nt | i | 0.69
CCN(CC)S(=O)(=O)c1ccc(NC(=O)CSc2ncnc3ccccc23)cc1 | -9 | 98 | -1.1 | 33 | 40 | i | 1
O=C(CN(C(=O)CSc1nnc(COc2ccccc2)o1)c1ccc(F)cc1)NC1CCCCC1 | -12 | 118 | 0.4 | -60 | 131 | i | 0.97
O=[N+]([O-])c1cc(/C=N\Nc2nc(-c3ccccc3)cs2)ccc1O | 5 | 103 | nt | 29 | 125 | i | 0.73
Cc1ccc(NC(=O)c2ccccc2NS(=O)(=O)c2ccc(Cl)s2)cc1S(=O)(=O)N1CCOCC1 | -7 | 109 | -0.3 | 8 | 63 | nt | nt
Cc1cc(C(=O)COc2ccc3ccc(=O)oc3c2)c(C)n1Cc1cccs1 | -1 | 98 | 1.5 | -6 | 76 | i | 1.1
CCN(CC)C(=O)CN1C(=O)COCC1=O | 2 | 99 | -2.0 | -93 | 89 | i | 0.88
COc1cc(C2Nc3cccc4cccc(c34)N2)ccc1OC(C)=O | 10 | 84 | -0.9 | -64 | 58 | i | 0.88
CCn1c(SCC(=O)NC)nnc1C(C)C | -7 | 98 | -1.1 | 52 | 116 | i | 0.87
N#Cc1nc(Cc2ccccc2)oc1NCc1ccccc1Cl | -14 | 98 | -1.4 | nt | nt | nt | nt
O=C(NCCc1ccccc1)C(=O)N/N=C/c1ccc2c(c1)OCO2 | -9 | 99 | -0.4 | nt | nt | i | 0.95
O=C(NNC(=S)NCc1ccco1)c1ccc(S(=O)(=O)N2CCOCC2)cc1 | -3 | 108 | nt | nt | nt | i | 0.92
CCOc1cc(C2C(C#N)=C(N)Oc3n[nH]c(C)c32)ccc1OCCN1CCOCC1 (stereo not given) | -1 | 89 | -1.8 | -29 | 88 | i | 1
Cc1ccc2nc(-c3ccccc3)c(CN3CCSCC3)n2c1 | 6 | 102 | nt | nt | nt | i | 0.94
CC(=O)Nc1ccc2nc(N)sc2c1 | -12 | 100 | -0.3 | 60 | 89 | i | 1.1
CC/C(=N\NC(=O)CSCc1ccccc1Br)c1ccc2c(c1)OCCO2 | 7 | 114 | -3.5 | 8 | 137 | i | 1.1
CN(C)S(=O)(=O)c1ccc(NC(=O)CSc2nc3ccccc3n2-c2ccccc2)cc1 | -4 | 99 | -0.6 | 0 | 128 | i | 0.85
CC(=O)Nc1ccc(Sc2ncccc2C(=O)Nc2cc(Cl)cc(Cl)c2)cn1 | -11 | 97 | -1.6 | 48 | 114 | i | 0.82

Hits appear at their usual frequency; any-hit rate near 1.3%.
